Mtb growth: Confirmatory growth inhibition assay against Mycobacterium tuberculosis H37Rv, potency (AID 1949); most inactive calls were filed without a number and no value below 0 was filed; one-dose inhibition, % at 10 µg/mL; IC50 in µg/mL for titrated hits; actives 1.6% (n = 100,000);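 active = confirmed in a dose series; inconclusive = about 50% or more but not retested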;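 note: bacteria grown 7 days with compound before Alamar blue readout; 0% = untreated bacteria and 100% = reference antibiotic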
* hit, by the source's call; i = inactive; ? = inconclusive. These rows are one share of the data (hit frequency here may not be typical).

Structure,Mtb growth
CC1CCc2nc(NC(=O)c3cc4ccccc4oc3=O)sc2C1 (centres undefined),18.0%
CC(NC=O)c1ccccc1 (centres undefined),i
COc1cccc(C(=O)NC(c2ccc(Cl)cc2)c2c(O)ccc3ccccc23)c1 (centres undefined),i
O=C(OCc1c(Cl)cccc1Cl)c1cccnc1,0.7%
COc1ccc(C2/C(=C(\O)c3cnn(-c4ccccc4)c3C)C(=O)C(=O)N2Cc2cccnc2)cc1OC (centres undefined),i
COc1ccc(NC(=O)c2cc(F)c(F)cc2Cl)cc1OC,i
CC1CCCC(N2CCN(C(=O)c3ccco3)CC2)C1 (centres undefined),i
COCCCNCCCCOc1ccc(C(C)(C)C)cc1C,28.7%
O=C(Nc1ccc2c(c1)oc1ccccc12)c1cccc(N2C(=O)CCC2=O)c1,i
Cc1ccc(S(=O)(=O)N2CCC(C(=O)Nc3ccccc3)CC2)cc1,i
CC(C)NS(=O)(=O)c1ccc(CCC(=O)N2CCOCC2)cc1,i
Cc1ccccc1NC(=O)CCC(=O)OCC(F)(F)C(F)F,i
Cc1nn(Cc2ccc(C(=O)Nc3ccccc3Sc3ccccc3)o2)c(C)c1Br,7.1%
CN(C1CCCCC1)S(=O)(=O)Cc1ccccc1,i
O=C(O)C1CC=C(Cl)CC1C(=O)Nc1nc2ccccc2s1 (centres undefined),i
Cc1ccccc1NC(=S)NCCC(c1ccccc1)c1ccccc1,i
Cc1oc2ccc(NS(=O)(=O)c3ccc(F)cc3)cc2c1C(=O)O,24.7%
CCOC(=O)CSC1=C(C#N)C(c2ccc(C(C)C)cc2)C2=C(CCCC2=O)N1 (centres undefined),?
CC(=O)c1cccc(NC(=O)Nc2ccccc2)c1,i
CN(C)CCNC(=S)NC1CCCCC1,4.7%

Reprinted from the part before: 2 compounds, followed by the next part.
Structure,Mtb growth
CC(=O)c1cccc(NC(=O)Nc2ccccc2)c1,i
CN(C)CCNC(=S)NC1CCCCC1,4.7%
COCCn1c(CCNC(=O)C(C)(C)C)nc2ccccc21,3.2%
CC1CCN(C(=O)Cn2cc(C(=O)c3ccccc3)c3ccccc32)CC1,i
Cc1cc(C)c(S(=O)(=O)N(C)CC(=O)Nc2ccc(C(C)C)cc2)c(C)c1,i
O=c1c2ccccc2nc(SCc2ccc(Cl)cc2)n1Cc1ccco1,i
CCOc1cc(CNc2ccc(Br)cc2)ccc1OCC(=O)Nc1cccc(C)c1,2.9%
O=C(Nc1ccc(Nc2ccccc2)cc1)C1CC1,i
Cc1ccc(C(=O)NC(=S)Nc2cccc3ccccc23)cc1Cl,i
CC1(C)CC(N2CCC(=O)NC2=S)CC(C)(C)N1,i
O=C1C2C3C=CC(C3)C2C(=O)N1c1n[nH]c(CCc2ccccc2)n1 (centres undefined),i
COc1ccc(OC)c(NC(=O)NNC(=O)c2csc(C)c2C)c1,i
COc1ccc2nc(N/C(N)=N/C(=S)Nc3cccc(C)c3)nc(C)c2c1,?
CCn1ncc(Cl)c1C(=O)NC(C)c1ccccc1 (centres undefined),i
O=C(Oc1ccccc1)c1cn(-c2ccccc2)nc1-c1cccc([N+](=O)[O-])c1,i
CCOC(=O)Oc1ccc2c(=O)c(-c3ccc(Cl)cc3)c(C(F)(F)F)oc2c1,i
COC(=O)c1sccc1NC(=O)c1cccc(F)c1,4.9%
Cc1ccc(-c2noc(CNC(C)C)n2)cc1,5.2%
COc1ccccc1NC(=O)c1c(Cl)ccc(Cl)c1OC,45.0%
CCN(CC)S(=O)(=O)c1cc(C(=O)Nc2ccccc2)ccc1Cl,i
CN(CC(=O)Nc1cccc2c1CCCC2)S(=O)(=O)c1ccccc1,i
S=C(NCCN1CCOCC1)Nc1ccc(Cl)c(Cl)c1,i
COc1ccc(S(=O)(=O)N(CC(=O)Nc2ccccc2C(N)=O)c2ccc(C)cc2)cc1OC,i
COc1ccc(C)cc1NS(=O)(=O)c1cc(C)c(C)cc1C,2.3%
NC(=O)C1CCN(C(=O)CN(c2ccccc2Cl)S(=O)(=O)c2ccccc2)CC1,i
Cc1ccc2c(c1)C(N1CCCC1=O)CC(c1ccco1)N2 (centres undefined),i
O=C(Nc1ccc(Oc2ccc3c(c2)C(=O)NC3=O)cc1)c1ccccc1F,i
CSCCC(C(=O)Nc1ccc(Br)cc1)N1C(=O)c2ccccc2C1=O (centres undefined),i
Cc1cc(=O)oc2cc(OC(=O)c3ccco3)ccc12,i
CCOc1cc(-c2nc3ccccc3s2)ccc1O,29.1%
CC(C)(C)c1ccc(C(=O)Nc2ccc([N+](=O)[O-])cn2)cc1,i
O=[N+]([O-])c1cc(F)c(N2CCOCC2)cc1N1CCNCC1,i
Cn1c(SCCc2ccccc2)nnc1-c1sc2ccccc2c1Cl,26.1%
Cc1cc(NC(=O)C(=O)NCc2ccccc2Cl)no1,i
COC(=O)c1cc(NC(=O)c2ccccc2SCc2ccccc2)cc(C(=O)OC)c1,i
O=S(=O)(c1ccccc1)c1ccc(I)cc1,i
Cc1c(C(=O)N2CCN(S(C)(=O)=O)CC2)oc2ccccc12,i
N/C(=N\OC(=O)c1ccc(Cl)c(Cl)c1)c1ccc(Cl)cc1,17.5%
Cn1cccc1/C=N/NC(=O)Cn1cnc2ccccc21,i
COc1cc(C)c(C)cc1S(=O)(=O)N1CCN(c2ccc(Cl)c(Cl)c2)CC1,i
COc1cccc(C(=O)Oc2ccc3c(C)c(C)c(=O)oc3c2C)c1,5.1%
CC1=C(C(=O)Nc2ccc(F)cc2)C(c2ccccn2)C2=C(CC(c3ccccc3)CC2=O)N1 (centres undefined),i

In the list so far, 3 have a nitro group on carbon.
Structure,Mtb growth
O=C(Oc1ccccc1)c1cn(-c2ccccc2)nc1-c1cccc([N+](=O)[O-])c1,i
CC(C)(C)c1ccc(C(=O)Nc2ccc([N+](=O)[O-])cn2)cc1,i
O=[N+]([O-])c1cc(F)c(N2CCOCC2)cc1N1CCNCC1,i

New compounds follow
Structure,Mtb growth
CC(SCc1ccccc1)C(=O)Nc1cccc(F)c1 (centres undefined),i
CCCn1nnc(NC(=O)c2cccc(C)c2)n1,i
CC(=O)Nc1ccc2nc(-c3ccc(Br)o3)[nH]c2c1,4.6%
CCCCc1ccc(NC(=O)COc2ccc(OCC)cc2)cc1,4.9µg/mL*
COc1ccc(CNS(=O)(=O)c2ccc(Cl)c(OC)c2)cc1,i
CCOC(=O)c1c(NC(=O)c2cc(-c3cccs3)nc3ccccc23)sc(C(N)=O)c1C,i
CCOC(=O)c1c(NC(=O)CCc2ccc(CC)o2)sc2c1CCCC2,i
O=C(NCc1ccco1)c1ccccc1O,i
O=C(NCc1ccco1)Nc1ccc(Br)cc1Cl,i
CCCC(=O)c1ccc(OCc2cc(C(C)=O)ccc2OC)cc1,i
O=S1(=O)C=CC(Nc2cccc(Cl)c2)C1 (centres undefined),i
CC(=O)CSc1nc2c(cc1C#N)CCCC2,i
Cc1ccccc1-c1noc(COc2ccc(C(C)(C)C)cc2)n1,4.8%
COc1cccc(OC)c1C(=O)NCCC1=CCCCC1,i
O=C(CN(c1ccccc1)S(=O)(=O)c1ccccc1[N+](=O)[O-])Nc1cc(C(F)(F)F)ccc1Cl,1.1%
N#C/C(=C\c1cc2c(cc1Br)OCO2)c1ccc(C#N)cc1,i
C=CCc1cc(OC)ccc1OCCCCn1ccnc1,i
CCn1cc(C(C)NC(=O)COc2ccc(Cl)cc2C)c(C)n1 (centres undefined),2.9%
CCOc1ccccc1NC(=O)C(C)N(c1ccc(Cl)cc1)S(C)(=O)=O (centres undefined),1.0%
COC(=O)c1cccc(NC(=O)COc2ccc(Cl)cc2Cl)c1C,i
COc1ccccc1-c1coc2cc(OCC(=O)c3ccc(F)cc3)ccc2c1=O,5.8%
O=C(NC(=S)Nc1ccc(S(=O)(=O)N2CCOCC2)cc1)c1ccc(Cl)cc1,2.8%
CCn1c(SCC(=O)NC2CCCCC2C)nnc1C(NC(=O)c1ccccc1)C(C)C (centres undefined),i
COc1cc(S(=O)(=O)Nc2c(C)cc(C)cc2C)ccc1Cl,3.2%
O=C(O)CSc1ncnc2scc(-c3ccc(Br)cc3)c12,i
CN1CCN(S(=O)(=O)c2ccc(NC(=O)c3ccncc3)cc2)CC1,i
COc1cc([N+](=O)[O-])ccc1NC(=O)c1cc(-c2ccc(Cl)cc2Cl)nc2ccccc12,i
COc1cc(/C=C2\C(=O)NC(=O)N(c3cc(C)cc(C)c3)C2=O)cc(I)c1O,2.3%
CC(=O)NCCc1nc2ccccc2n1CCCOc1ccccc1C,i
Cc1ccccc1OCC(=O)OC1CCN(C)CC1,i
CCOC(=O)c1c(C)sc([N+](=O)[O-])c1O,0.5%
COc1ccccc1N1C(=O)CCC1(C#N)c1ccccc1 (centres undefined),i
Cc1cc(N)cc(C)c1OCC(=O)N1CCOCC1,i
CCOC(=O)c1c(-c2ccc(Br)cc2)csc1N,3.6%
Cc1cc2ncn(Cc3ccccc3C)c2cc1C,11.1µg/mL*
CC(=O)Nc1cc(C(=O)OC(C(=O)c2ccccc2)c2ccccc2)ccc1C (centres undefined),i
Cc1ccc(OCC(=O)NC2CCCC2)c(C)c1,i
CCOC(=O)C1CCN(C(=O)CN(c2ccc(OCC)cc2)S(C)(=O)=O)CC1,i
O=C(COc1ccc([N+](=O)[O-])cc1)Oc1ccccc1Cl,i
CC(C)(C)NC(=O)c1sc2ccccc2c1Cl,0.8%
Cc1occc1C(=O)Nc1nnc(C(F)(F)F)s1,i
Cc1ccc(-c2cc(C(=O)N3CCN(c4ccccc4)CC3)c3ccccc3n2)c(C)c1,21.3%
CCC(CC)c1nnc(NC(=O)c2ccc(-c3ccccc3)cc2)s1,i
Cc1ccc(OCCSc2n[nH]c(N)n2)cc1,i
Cc1cc(C)c(NC(=O)c2ccccc2Cl)c([N+](=O)[O-])c1,i
CCC(O)c1cc2c(cc1NC(=O)c1ccccc1F)OCCO2 (centres undefined),i
CCN(CC)S(=O)(=O)c1ccc(Cl)c(C(=O)Nc2sc3c(c2C#N)CCCC3)c1,0.6%
CCc1ccc(NC(=O)C(=O)NCc2cccnc2)cc1,0.9%
CCc1ccc(OCC(=O)Nc2ccccc2-c2ccccc2)c(Br)c1,17.4%
CN1CCN(C(=O)c2ccc(N(Cc3ccccc3Cl)S(C)(=O)=O)cc2)CC1,i
CCCCOc1ccc(OCCNC(=O)c2ncn[nH]2)cc1,i
O=C(NCc1cccnc1)c1ccc(COc2ccc(Cl)cc2)cc1,i
O=C1OC(NCc2cccnc2)(c2ccc(Cl)cc2)c2ccccc21 (centres undefined),1.5%
CN(C)c1ccc(CNC2CC(C)(C)NC(C)(C)C2)cc1,i
COc1ccc(CC(=O)NCc2nnc(SCC(=O)Nc3ccc(Br)c(C)c3C)n2C)cc1,i
CS(=O)(=O)N1CCN(C(=O)C(c2ccccc2)c2ccccc2)CC1,i
CC(=O)c1ccc(OC(=O)COc2ccc(Cl)cc2C)cc1,i
COc1ccc(N(CC(=O)Nc2cccc([N+](=O)[O-])c2)S(C)(=O)=O)c(OC)c1,i
COc1ccccc1C(=O)N/C(=C/c1ccccc1)C(=O)NC(CCSC)C(=O)O (centres undefined),?
COc1ccc(N/C(=N\c2nc(C)cc(C)n2)NC(C)=O)cc1,i

Later entries
Structure,Mtb growth
CCCCNCCCOc1ccccc1C(C)CC (centres undefined),38.5%
O=c1[nH]c2ccc(S(=O)(=O)Nc3ccc(I)cc3)cc2[nH]1,i
CN1CCN(C(=O)CN(c2cc(C(F)(F)F)ccc2Cl)S(=O)(=O)c2ccccc2)CC1,i
COc1cc(C=O)c(Cl)cc1OC1CCCC1,i
CC(Oc1ccc(Cl)cc1Cl)C(=O)O/N=C(\N)Cc1ccc([N+](=O)[O-])cc1 (centres undefined),10.2%
COc1cc(N2CCCC2)c(OC)cc1/C=C(/C#N)c1nc2ccc(C)cc2[nH]1,25.9%
c1ccc(-c2csc(N3CCc4ccccc4C3)n2)cc1,i
CC1CCN(c2ccc(NC(=O)Cc3ccccc3)cc2)CC1,3.4%
O=C(CNS(=O)(=O)c1ccccc1)Nc1ccc(I)cc1,i
Cc1cccc(N2C(=O)c3cccc4c(Cl)ccc(c34)C2=O)n1,i
O=C(Nc1ccccc1OC(F)F)c1sc2ccccc2c1Cl,i
Cc1c(C(=O)ON2C(=O)c3ccccc3C2=O)cccc1[N+](=O)[O-],2.3%
CC(Oc1ccc(Cl)cc1Cl)C(=O)Nc1ccc(OCC(=O)O)cc1 (centres undefined),i
CCOCC(=O)Nc1nc(C)cs1,3.0%
CCOc1ccc(C(=O)NC(C)C23CC4CC(CC(C4)C2)C3)cc1 (centres undefined),i
N#Cc1ccc(-c2cc(C(F)(F)F)ccc2Cl)o1,i
COc1ccc(OC)c(NC(=O)CSc2nnc(NC(C)=O)s2)c1,2.0%
CNCCCOc1ccc(Cl)c(Cl)c1,i
COc1ccc(NC(=S)Nc2ccccc2Cl)cc1,i
O=C(Nn1cnnc1)c1cc(Cl)cc(Cl)c1,3.7%
O=C(CN(Cc1ccc(F)cc1)S(=O)(=O)c1ccccc1)Nc1cccc(Br)c1,i
O=C(COc1ccc2ccccc2c1Br)Oc1ccc(Cl)cc1,i
Cc1ccc(SCCNS(=O)(=O)c2ccc(C)cc2)cc1,i
